WNV NS2B-NS3 inh – blocks West Nile virus NS2B-NS3 protease activity. z-score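 (tested at a level between 10 and 100 µM)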. P06935. 65,000 compounds, 0.18% hits. WNV NS2B-NS3 protease, fluorogenic substrate Ex360/Em465; hits give low values. AID 577;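 active means z-score at -3 or under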;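 further: score is relative to mean and spread of the compound wells of a plate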
Target sequence (P06935 1371-1501 limits assumed): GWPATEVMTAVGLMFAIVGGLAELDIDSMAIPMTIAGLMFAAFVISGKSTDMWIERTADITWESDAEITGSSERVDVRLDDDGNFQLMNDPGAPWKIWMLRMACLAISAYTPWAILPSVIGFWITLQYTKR
Target sequence (P06935 1502-1679 limits assumed): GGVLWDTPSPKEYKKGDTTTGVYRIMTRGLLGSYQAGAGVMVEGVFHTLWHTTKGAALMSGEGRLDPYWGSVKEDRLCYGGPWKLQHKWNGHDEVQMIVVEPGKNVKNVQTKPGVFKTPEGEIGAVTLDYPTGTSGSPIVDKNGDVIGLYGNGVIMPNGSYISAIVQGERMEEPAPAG
MT1-MMP promoter – inhibitors of MT1-MMP promoter transcription, cell-based, luciferase reporter, luminescence (AID 618). MT1-MMP promoter luciferase reporter cells, luminescence. calls from a first round at 10 µM; hits with a dose series show EC50 in µM. 87,000 compounds, 0.62% hits;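 active means over half of the reporter light lost at 10 µM or EC50 under 50 µM; inactive means the rest and hits that failed the dose series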;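 further: actives suppress MT1-MMP promoter-driven transcription so potencies describe inhibitors; HT1080 fibrosarcoma cells; overnight exposure; toxic or luciferase-blocking compounds were not removed from the actives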
Hsc70 – small molecules displacing fluorescent ligand from Hsc70 – biochemical, fluorescence polarization, primary screen (AID 568). Hsc70 fluorescence polarization, probe displacement; higher % means a stronger effect; strong numbers were not always called active. displacement, % at 20 µM, or IC50 in µM where a hit was titrated. 83,000 tested, under 10 active;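 active means displacement above 50% without optical interference and an IC50 on retest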;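 further: ATPase domain with a fluorescein-tagged ATP probe; 0% = vehicle and 100% = excess ADP; read after one hour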
An asterisk follows results filed as active; i = inactive; . = no result given. Not all compounds are listed; count on the stated rates, not on these rows.

compound | WNV NS2B-NS3 inh | MT1-MMP promoter | Hsc70
O=C1C2C3C=CC(C3)C2C(=O)N1CN(Cc1ccccc1)CN1C(=O)C2C3C=CC(C3)C2C1=O (stereo not given) | 2.9 | i | -2.0%
COc1ccc(-c2cc(C(=O)OCC(=O)N3CCCC3)c3ccccc3n2)cc1 | -1.3 | i | 2.3%
CC1=CC=CN2CC(O)CN=C12 (stereo not given) | 0.28 | i | 1.5%
O=C(Cc1ccccc1)Nc1ccc2oc(-c3cccnc3)nc2c1 | -1.5 | i | -17%
CC1CCCCC1NC(=O)CN(C)S(=O)(=O)c1cccc2nsnc12 (stereo not given) | 1.2 | i | -2.0%
O=C1c2ccccc2C(=O)N1c1nc2nccc(-c3ccccc3)n2n1 | 0.23 | i | 8.2%
CCOP(=O)(c1ccccc1Cl)C1(O)CCCCC1 (stereo not given) | -0.44 | i | 0.9%
Cc1ccc(-c2cn3c(n2)CCCC3)cc1 | -0.39 | i | 0.2%
COCCN(C(=O)c1ccco1)c1nnc(-c2ccc(OC)cc2)s1 | . | i | -3.1%
CCOC(=O)C1CCCN(C(=O)c2cc3nc(-c4ccc5c(c4)OCO5)cc(C(F)(F)F)n3n2)C1 (stereo not given) | . | i | -1.2%
Brc1ccc2nc3c(n2c1)CCCC3 | -0.37 | i | 0.3%
O=C(NCCOC(=O)c1ccncc1)c1ccccc1 | -0.7 | i | 0.9%
CCc1nc(SCC(=O)N2CCOCC2)c2c(=O)n(C)c(=O)n(C)c2n1 | 0.53 | i | -1.9%
Cn1c(=O)c(-c2cc(Br)ccc2N)nc2ccccc21 | . | i | -5.1%
O=C(NCCc1cn2ccccc2n1)c1ccccc1F | 0.37 | i | 1.9%
O[C@@H](CNC[C@H](O)c1ccccc1)c1ccccc1 | . | i | 4.9%
N#CC1=C(N)N(c2ccc(Br)cc2)C2=C(C(=O)CCC2)C1c1cccnc1 (stereo not given) | 0.32 | i | 0.8%
CC(=O)[C@H]1[C@@H]2C(=O)N(c3cccc(Cl)c3)C(=O)[C@@H]2[C@H]2c3ccccc3C=CN21 | -0.29 | i | 9.9%
O=C1c2ccccc2C(O)N1c1ccc(Cl)cc1 (stereo not given) | 0.06 | i | 3.9%
COCCOC(=O)C1=C(C)Nc2nc(C)nn2C1c1ccccc1 (stereo not given) | 1.3 | i | -0.3%
C=CC1C(N2CCOCC2)C(C)(C)S1(=O)=O (stereo not given) | -0.71 | i | -5.9%
CSc1nccc(Nc2ccccc2)c1C#N | 0.01 | i | -3.2%
CC1CCc2nc(N)c(C#N)c(-c3ccncc3)c2C1 (stereo not given) | -0.21 | i | 0.2%
Cc1cnc(C(=O)OCC(=O)N2CCN(C(=O)c3ccco3)CC2)cn1 | -1.5 | i | 8.2%
Cn1c(=O)c2cn3ncccc3c2n(C)c1=O | -0.47 | i | 9.1%

compound | WNV NS2B-NS3 inh | MT1-MMP promoter | Hsc70
O=C(Cn1nnc(-c2ccccc2)n1)OCc1ccccc1 | 0.28 | i | 2.2%
CCC(C)S(=O)(=O)c1snnc1C (stereo not given) | . | i | 9.7%
Cc1sc2nc(CSc3nc4ccccc4c(=O)n3CCCN3CCOCC3)[nH]c(=O)c2c1C | 0.22 | i | -50%
Cc1cc(N2CCc3ccccc32)n2ncnc2n1 | -0.71 | i | -1.7%
CCN(CC)S(=O)(=O)c1ccc(-c2ccc(S(=O)(=O)N(CC)CC)cc2)cc1 | . | i | -1.2%
CC1Cc2ccccc2N1c1nc(C2CC2)nc2c1nnn2Cc1ccccc1 (stereo not given) | . | i | -13%
Cc1ccc(C(=O)CSc2nc(N)cc(=O)[nH]2)cc1 | -0.12 | i | -4.7%
COc1ccc(NC(=O)c2cc3ccccc3o2)cc1 | -0.7 | i | 1.0%
COC(=O)c1ccccc1NC(=O)c1sc(N)nc1C | -1.1 | i | 2.9%
CCN(CC)CCN1C(=O)C(=O)/C(=C(/O)c2ccncc2)C1c1ccccc1F (stereo not given) | -0.84 | i | 1.9%
O=C(NCCN1CCCCCC1)c1ccc(N2CCCC2=O)cc1 | -0.76 | i | 3.8%
CCc1ccc(NC(=O)c2noc3c2CCCCC3)cc1 | -0.91 | i | 1.8%
O=C(CN1CCN(c2ncccn2)CC1)N1CCCc2c1c(=O)oc1ccc(O)cc21 | . | i | 0.4%
CCOC(=O)c1cnc(SCC(=O)Nc2ccccc2C(=O)OC)nc1N | . | i | 4.0%
CCCCN(CCCC)CCn1cnc2c([nH]c3ccc(OC)cc32)c1=O | -0.63 | i | -2.7%
CC(=O)OC(C(=O)Nc1ccccc1)C(C)S(=O)(=O)c1ccccc1 (stereo not given) | -1.1 | i | -12%
Cc1cc(C(=O)CSc2nnnn2C)c(C)n1CCc1ccc(Cl)cc1 | -0.01 | i | -11%
CN(C(=O)c1ccccc1)c1nc2ccccc2s1 | -0.09 | i | -1.6%
Nc1nonc1-c1nc2ccccc2n1CC(=O)NC1CCCC1 | -0.6 | i | 2.0%
Cc1n[nH]c(C)c1S(=O)(=O)N1CCCC(C(=O)NCc2ccccc2Cl)C1 (stereo not given) | . | i | -3.3%
Cc1ccc(C2NS(=O)(=O)N=C2N)cc1 (stereo not given) | . | i | 0.3%
COc1ccc(C(C#N)N2CCCCC2)cc1OC (stereo not given) | 1.9 | i | 1.8%
CN(c1nnc(N)s1)C1CCCCC1 | -1.1 | i | -1.9%
O=C(Nc1nccs1)c1cccc(S(=O)(=O)N2CCCCC2)c1 | -0.62 | i | 8.0%
COc1ccc(-n2ncc3c(NC(C)C)ncnc32)cc1 | -1.2 | 5.4µM* | 2.1%

compound | WNV NS2B-NS3 inh | MT1-MMP promoter | Hsc70
CCOc1ccc(S(=O)(=O)Nc2ccccc2C(=O)Nc2ccccc2N2CCOCC2)cc1 | -0.52 | i | -0.2%
NC(=O)N1c2ccccc2C=Cc2ccccc21 | 0.13 | i | -5.7%
CCSCCOC(=O)C1=C(C)N(C)C(=O)NC1c1cc(OC)ccc1OC (stereo not given) | -0.46 | i | 14%
O=C1C2C3C=CC([C@@H]2C(=O)N1c1nccs1)C31CC1 (stereo not given in full) | -1.1 | i | 0.8%
CC(C)N(Cc1nc(-c2ccc(Cl)cc2)no1)C(=O)c1cccs1 | 0.01 | i | 1.7%
CCOC(=O)c1c(N)ssc1=S | 0.02 | i | 9.0%
CCCCN1C(=O)CC(N2CCOCC2)C1=O (stereo not given) | . | i | -0.4%
Cc1ccc(S(=O)(=O)NCc2ccco2)cc1C | 1.2 | i | 0.0%
C=CCn1c(COc2ccc(F)cc2)nnc1SCC(=O)NC(=O)NCc1ccco1 | -0.66 | i | 1.9%
N#Cc1c(NC(=O)CSc2nnnn2C2CCCCC2)sc2c1CCCC2 | 0.81 | i | -6.4%
O=C(COc1ccc(Cl)cc1)Nc1nnc(-c2ccc3c(c2)CCCC3)o1 | 1.1 | i | 2.6%
O=C1CCCc2nc(NCc3ccco3)ncc21 | -0.02 | i | -2.4%
C=CCC(C)(NCc1ccccc1)c1ccco1 (stereo not given) | . | i | -4.2%
Cc1ccc(CNC(=O)c2cc3c(-c4ccc(Cl)cc4)nn(C)c3s2)o1 | -0.24 | i | -0.5%
O=C(Nc1cccc(-c2cn3ccsc3n2)c1)c1ccccc1 | -0.98 | i | -0.6%
CCOC(=O)c1c(N)sc2c(OC)c(Br)ccc12 | -0.67 | i | -4.6%
COc1ccccc1-c1ccc(=O)n(CC(=O)NC(C)(C)C)n1 | 1.3 | i | 1.9%
Cc1nn(C)c(C)c1S(=O)(=O)N(CC(=O)NCCCOC(C)C)c1ccc(C(C)C)cc1 | -0.99 | i | 2.3%
CCC(C)NC(=O)CSc1nc2c(sc(=S)n2Cc2ccco2)c(=O)n1-c1ccccc1 (stereo not given) | . | i | -3.8%
CC1(C)CC(NC(=O)CC(c2ccccc2)c2ccccc2)CC(C)(C)N1 | . | i | 9.4%
CCOc1ccc(C(=O)CCN2CCCCCC2)cc1 | -0.6 | i | -1.8%
Cc1nnc(C)n1/N=C/c1cccs1 | -0.61 | i | 5.9%
CCOC(=O)C1=C(CNCc2ccc(C)cc2)NC(=O)NC1c1cc(C)ccc1C (stereo not given) | . | i | 4.5%
S=C(NC1CCCCC1)N(CCc1nc2ccccc2[nH]1)C1CCCC1 | . | i | 1.7%
CC(=O)c1ccc(NC(=O)CN2C(=O)COc3ccc(Cl)cc32)cc1 | 1.7 | i | 0.2%

compound | WNV NS2B-NS3 inh | MT1-MMP promoter | Hsc70
Cc1ccc(N2CC(C(=O)Nc3ccc(N(C)C)cc3)CC2=O)cc1C (stereo not given) | 0.52 | i | -7.4%
Cc1c(C)n(CC(O)CN2CCCCCC2)c2ccccc12 (stereo not given) | -0.08 | i | -3.6%
Cc1cc(-c2ccc(Cl)cc2)c(C#N)c(N)n1 | . | i | -7.0%
COCc1[nH]nc2c1C(c1ccsc1)C(C#N)=C(N)O2 (stereo not given) | -0.67 | i | -3.1%
Oc1ccc(Br)cc1CNn1cnnc1 | 0.31 | i | 1.7%
COc1ccc(Nc2ncc(C(=O)O)c3ccccc23)cc1 | . | i | 1.6%
O=C(CCCCCCN1C(=O)c2ccccc2C1=O)N1CCC(c2ccccc2)C1 (stereo not given) | . | i | 0.2%
Cc1c(NC(=O)Nc2ccc(Cl)cc2)c(=O)n(-c2ccccc2)n1C | 0.02 | i | -5.1%
Cc1ccc(SCc2[nH]nc3c2C(c2ccco2)C(C#N)=C(N)O3)cc1 (stereo not given) | 0.0011 | i | -1.8%
COC(=O)C1=C(C)N(C)C(C)=C(C(=O)OC)C1c1ccccn1 | -0.62 | i | 7.0%
Cc1ncc2c(c1OC(=O)c1ccc([N+](=O)[O-])cc1)COC(C)(C)OC2 | . | i | 2.6%
CCOc1ccc(-c2n[nH]c(C)c2Oc2ccc(OC)cc2)c(O)c1 | -0.11 | i | -2.6%
Cn1c(=O)[nH]c(=O)c2c1nc(N1CCCCC1)n2CCSc1ncccn1 | -1.1 | i | -2.3%
Cc1ccc(N(C(=O)CCC(=O)Nc2cc(C)on2)C(C(=O)NC2CCCC2)c2cccs2)cc1 (stereo not given) | . | i | 1.4%
CCCN1C(=O)SC(CC(=O)Nc2cccc3ccccc23)C1=O (stereo not given) | . | i | 4.4%
CN1CCN(c2nc3c(c(=O)[nH]c(=O)n3C)n2CCSc2ncccn2)CC1 | 0.81 | i | 4.2%
Cc1ccc2[nH]c(=O)c(-c3nc4ccccn4c3NCc3ccco3)cc2c1 | . | i | 4.0%
COc1ccccc1-n1cnc(N)c1C(C)=O | 1 | i | 3.2%
CCn1c(=O)c(C(C)=O)nc2ccccc21 | -1.5 | i | 8.0%
COc1cc(C(=O)Nc2ccc(S(=O)(=O)Nc3nccc(C)n3)cc2)cc(OC)c1OC | . | i | 8.8%
COc1ccccc1CNC(=O)CSCc1cnn(-c2ccccc2)c1-n1cccc1 | . | i | 7.9%
O=S(=O)(c1cccs1)N1CCCc2ccccc21 | 1.3 | i | -4.1%
CCC(=O)c1cc2c(cc1NC(=O)c1cccs1)OCCO2 | 0.35 | i | 6.2%
COC(=O)Nc1snnc1C | . | i | -3.7%
COc1ccccc1Cc1noc(COc2cccc(C)c2C)n1 | 0.97 | i | 1.8%

An excerpt from above in order of number of heavy atoms, ascending:
compound | WNV NS2B-NS3 inh | MT1-MMP promoter | Hsc70
COc1ccccc1-n1cnc(N)c1C(C)=O | 1 | i | 3.2%
COCc1[nH]nc2c1C(c1ccsc1)C(C#N)=C(N)O2 (stereo not given) | -0.67 | i | -3.1%
COc1ccc(Nc2ncc(C(=O)O)c3ccccc23)cc1 | . | i | 1.6%
COc1ccccc1Cc1noc(COc2cccc(C)c2C)n1 | 0.97 | i | 1.8%

More compounds:
compound | WNV NS2B-NS3 inh | MT1-MMP promoter | Hsc70
Nc1nnc(SCC(=O)NC23CC4CC(CC(C4)C2)C3)s1 | . | i | -0.7%
COc1ccc2[nH]c(=O)c(CN(C(=O)c3ccccn3)c3ccccc3)cc2c1 | 0.64 | i | -1.4%
C=CCN1C(=O)/C(=C2/Sc3ccccc3N2C)SC1=Nc1c(C)n[nH]c1C | -0.27 | i | -1.6%
CCCc1cc(C(N)=O)c(NC(=O)c2cc(C)on2)s1 | 1.9 | i | -2.2%
CCOC(=O)c1c(C)nc2ccccn12 | -0.46 | i | 3.8%
Nc1c(Br)cc2oc(-c3ccccc3)nc2c1Br | 0.84 | i | -1.2%
CCCCOc1ccc(C(=O)CCN2CCCCC2)cc1 | -0.25 | i | 0.1%
CCOC(=O)C1=C(O)/C(=C/N(C)C)N=C1C | -1.2 | i | 1.6%
CCOc1ccccc1NC(=O)CSc1nnc(-c2cnccn2)n1CC | -0.45 | i | 1.2%
CC(=O)c1cc2c(cc1NC(=O)CN1CCN(c3cccc(C(F)(F)F)c3)CC1)OCO2 | . | i | 3.9%
O=C(NCc1ccccc1)N(Cc1cc2cc3c(cc2[nH]c1=O)OCO3)CC1CCCO1 (stereo not given) | 1.6 | i | -6.0%
COc1cc(C2C(C(=O)c3ccc(C)o3)=C(O)C(=O)N2c2cc(C)on2)ccc1O (stereo not given) | -0.19 | i | -3.9%
CCOC(=O)C(C(=O)OCC)[C@@H]1CS(=O)(=O)C[C@H]1C(C(=O)OCC)C(=O)OCC | 0.75 | i | -0.7%

Bioassay records from PubChem BioAssay.
